# ALR H2O2 inh: inhibitors of human sulfhydryl oxidase ALR; 290,000 tested, 3.8% active; AID 485317; purified ALR, DTT oxidation, H2O2 HRP-luminol luminescence; inhibition, % (no concentration beside the values);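 active = mean and each replicate at 75% or more; inconclusive = only one of the two met; inactive = neither met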;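 also: stock transfer was 7.5 nL into about 7.5 µL; 0% = neutral wells and 100% = wells with inactivated enzyme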
# Target sequence (P55789 whole entry, looked up): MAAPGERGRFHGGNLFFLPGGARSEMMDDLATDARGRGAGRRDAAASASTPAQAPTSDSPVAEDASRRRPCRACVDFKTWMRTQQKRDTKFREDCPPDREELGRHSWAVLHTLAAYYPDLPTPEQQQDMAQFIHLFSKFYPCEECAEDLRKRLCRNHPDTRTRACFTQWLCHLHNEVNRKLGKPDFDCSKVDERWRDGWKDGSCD
# Vif TR-FRET: HIV-1 Vif–A3G interaction blockers – biochemical, TR-FRET, GST-Vif 1-94, biotin-A3G peptide, dose response retest, primary screen (AID 1117319); TR-FRET GST-Vif / biotin-A3G peptide binding; higher % means a stronger effect; test concentration not given here; strong numbers were not always called active; inhibition, %, or IC50 in µM where a hit was titrated; 260,000 tested, 0.57% active;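 active = above the screen mean plus three standard deviations and confirmed in dose response; inconclusive = results disagree or hit not tested in dose response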;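 also: Vif residues 1-94 fused to GST binding biotinylated APOBEC3G peptide 110-148; 0% = full assay without inhibitor and 100% = GST in place of GST-Vif; retest series ran down from 100 µM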
# Ecoli rRNA inh: inhibitors of bacterial rRNA selective over humanized ribosomes | E. coli WT GFP vs humanized-ribosome RFP mutants, fluorescence, 24 h; hits give low values; DMSO median 0, no signal -100 | GFP signal change (wild-type ribosome), % (no concentration beside the values) | 350,000 tested, 1.6% active | AID 720706;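 active = significant combined selectivity score with lowered wild-type GFP, culture density cut under 30%, mutant RFP and density less affected; inactive = any of these conditions unmet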; also: one replicate is shown; some compounds called inactive have numbers as strong as hits
# FGF22 binding: binders of recombinant human FGF22 by thermal shift; Q9HCT0; 340,000 tested, 1.5% active; SYPRO orange fluorescence; percent of sucrose octasulfate shift, DMSO zero; AID 651658; calls only at 9.99 µM;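 active = melting point raised past a set limit in the mean and every replicate; inconclusive = no clear call; three in four hits are not shown here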
# Target sequence (Q9HCT0 whole entry, looked up): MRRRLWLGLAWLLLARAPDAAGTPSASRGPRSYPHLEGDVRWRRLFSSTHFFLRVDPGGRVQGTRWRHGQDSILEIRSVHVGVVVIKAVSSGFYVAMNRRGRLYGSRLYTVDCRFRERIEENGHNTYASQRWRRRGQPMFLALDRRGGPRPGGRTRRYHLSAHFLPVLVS
# MLL AF4-AF9 inh: blocks AF4 peptide binding to human AF9; 350,000 tested, 0.47% active; P42568; inhibition, % at 10 µM; AlphaScreen, biotin-AF4 peptide binding to FLAG-AF9;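 active = every replicate reaching a set inhibition limit, whatever the replicate mean, cut at about 25% in these data; inconclusive = mean inhibition reaches that limit but some replicates miss it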;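 also: 0% = plate neutral control median and 100% = total signal loss; the record names both 10 and 1 µM as test concentration; the first replicate is given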
# E coli growth: E. coli growth inhibition; 330,000 tested, 0.21% active; AID 1053175; OD600 absorbance (no concentration beside the values); Escherichia coli growth, OD600, 23 h; hits give low values;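 active = OD600 absorbance below the run mean of sample wells minus 3.6 SD, in any replicate, cut at about 0.56 in these data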;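 also: stock transfer was 300 nL into about 60 µL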
# HNF4A DNA FP: change in binding of human HNF4 alpha to DNA; HNF4a-FITC DNA binding, fluorescence polarization, 1 h; activity change, % at 10 µM; 360,000 tested, 0.3% active; AID 1224865; in the data active = activity change above about 30%, passing the limit was not always enough;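 also: controls were the assay level and a saturating level of protein; the project sought stronger binding though the title names inhibitors; some compounds called inactive have numbers as strong as hits; positive values seem to mean higher polarization but the record does not say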
# Target sequence (P41235 whole entry, looked up): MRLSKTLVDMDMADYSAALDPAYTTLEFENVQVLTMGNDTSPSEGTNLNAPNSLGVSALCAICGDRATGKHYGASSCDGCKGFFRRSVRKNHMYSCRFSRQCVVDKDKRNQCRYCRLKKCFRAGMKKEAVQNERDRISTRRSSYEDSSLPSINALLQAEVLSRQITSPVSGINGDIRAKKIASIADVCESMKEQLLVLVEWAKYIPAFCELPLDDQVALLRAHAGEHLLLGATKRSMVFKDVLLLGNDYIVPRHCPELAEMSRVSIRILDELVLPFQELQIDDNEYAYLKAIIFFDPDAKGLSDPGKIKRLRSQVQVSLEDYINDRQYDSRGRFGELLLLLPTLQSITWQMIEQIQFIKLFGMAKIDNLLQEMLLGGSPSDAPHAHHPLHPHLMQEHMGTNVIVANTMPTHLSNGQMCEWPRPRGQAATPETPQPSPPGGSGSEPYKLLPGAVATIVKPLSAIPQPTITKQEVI
# Ecoli rRNA inh OD600: second read-out of Ecoli rRNA inh, no call of its own (marks repeat the call); OD600 change, %; measured here: OD600 growth;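 optical density of the mix in the first replicate; 0 = DMSO median and -100 = no signal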
# Ecoli rRNA inh RFP: further read-out of Ecoli rRNA inh, marked with its call; RFP signal change, %; measured here: RFP humanized mutant strains;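 first replicate; 0 = DMSO median and -100 = no signal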
# * marks the source's active call; other numbers are inactive results; i = inactive; ? = inconclusive; nt = not tested or not shown. An excerpt; the hit share may differ from the screen's.
[1] Cc1cc(C)c(NC(=O)c2sc3nc4c(cc3c2N)C(=O)CC(C)(C)C4)c(C)c1
[2] C[C@@H]1CN([C@H](C)CO)S(=O)(=O)c2ccc(C#CC3CC3)cc2O[C@@H]1CN(C)CC1CC1
[3] Cc1ccc(CSc2nnc(SCC(=O)N/N=C/C=C/c3ccccc3[N+](=O)[O-])s2)cc1
[4] C[C@H](CO)N1C[C@H](C)[C@H](CN(C)Cc2cccnc2)Oc2ncc(C#CCc3ccccc3)cc2C1=O
[5] C[C@@H]1CCCCO[C@@H](CN(C)S(=O)(=O)c2cn(C)cn2)[C@@H](C)CN([C@H](C)CO)C(=O)c2cc(NS(=O)(=O)c3ccc(Cl)cc3)ccc2O1
[6] CN(C)c1nc(=Nc2cccc(Cl)c2)ss1
[7] Cc1ccc(-c2ccc(CCC(=O)O)o2)cc1
[8] COC(=O)CSC1=C(C#N)C(c2ccsc2)CC(=O)N1 (centres undefined)

Assay by compound	1	2	3	4	5	6	7	8
ALR H2O2 inh	-13	nt	-1	nt	nt	nt	20	7
Vif TR-FRET	nt	nt	-4%	nt	nt	-4%	1%	1%
Ecoli rRNA inh	nt	-4	6	-3	1	-21*	nt	nt
Ecoli rRNA inh OD600	nt	-4	12	2	10	-16*	nt	nt
Ecoli rRNA inh RFP	nt	-0.1	1.6	3.7	1.6	6.3*	nt	nt
FGF22 binding	nt	i	i	i	i	i	nt	nt
MLL AF4-AF9 inh	nt	7.5	11	3.2	-10	-3.9	nt	nt
E coli growth	0.76	nt	nt	nt	nt	nt	0.7	0.7
HNF4A DNA FP	2.4	nt	-2.4	nt	nt	-0.7	2.5	1.6

# Next part; the last 3 above are carried over.
[6] CN(C)c1nc(=Nc2cccc(Cl)c2)ss1
[7] Cc1ccc(-c2ccc(CCC(=O)O)o2)cc1
[8] COC(=O)CSC1=C(C#N)C(c2ccsc2)CC(=O)N1 (centres undefined)
[9] COC(=O)[C@@H]1[C@@H](CO)[C@@H]2Cn3c(cccc3=O)[C@@H]2N1C(=O)C1CC1
[10] O=C(O)CCn1cc(C2CC(c3ccccc3)=NN2c2ccccc2)c(-c2ccccc2)n1 (centres undefined)
[11] CC(C)NC(=O)N(C)C[C@H]1Oc2ccc(NS(C)(=O)=O)cc2C(=O)N([C@@H](C)CO)C[C@@H]1C
[12] COCC#Cc1ccc2c(c1)O[C@@H](CN(C)S(=O)(=O)c1cccc(OC)c1)[C@@H](C)CN([C@@H](C)CO)S2(=O)=O
[13] O=C(c1cc(F)c(F)cc1Cl)N1CCN(S(=O)(=O)c2cccs2)CC1
[14] CC(=O)OC[C@H]1O[C@@H](n2ccc(=O)[nH]c2=S)C(OC(C)=O)C1OC(C)=O (some centres undefined)
[15] CC(C)Cn1[nH]c2c3c(ccc2c1=O)C(=O)c1ccccc1C3=O
[16] COc1ccccc1NC(=O)/C=C/C(=O)O

Assay by compound	6	7	8	9	10	11	12	13	14	15	16
ALR H2O2 inh	nt	20	7	nt	99*	nt	nt	nt	1	2	-10
Vif TR-FRET	-4%	1%	1%	nt	?	nt	nt	-6%	5%	6%	15%
Ecoli rRNA inh	-21*	nt	nt	4	5	3	-5	3	nt	nt	16
Ecoli rRNA inh OD600	-16*	nt	nt	1	4	20	-7	5	nt	nt	17
Ecoli rRNA inh RFP	6.3*	nt	nt	-2.0	2.9	-3.4	4.4	1.0	nt	nt	-1.5
FGF22 binding	i	nt	nt	i	i	i	i	i	nt	nt	i
MLL AF4-AF9 inh	-3.9	nt	nt	-2.7	-15	-0.3	1.8	0.3	nt	nt	-3.5
E coli growth	nt	0.7	0.7	nt	nt	nt	nt	0.71	0.7	0.72	0.68
HNF4A DNA FP	-0.7	2.5	1.6	nt	4.2	nt	nt	0.6	-0.2	-5.6	1.6

[17] C[C@@H]1CN([C@H](C)CO)C(=O)Cc2cc(NC(=O)C3CC3)ccc2O[C@@H]1CN(C)C(=O)Nc1cccc2ccccc12
[18] COCCNC(=O)C1(C)CCCN(Cc2ccccc2N(C)C)C1 (centres undefined)
[19] CC(C)(C)c1ccc(C(=O)NCc2ccc(Cl)cc2)cc1
[20] c1ccc(CNc2nc(NCCOc3ccccc3)c3sccc3n2)cc1
[21] C(=Cc1cnnc2ccccc12)c1ccccc1
[22] N#C/C(=C(/O)COC(=O)CSc1ccc2ccccc2c1)c1nc2ccccc2[nH]1
[23] CC(C)=CC(=O)OCC(=O)Nc1ccccc1Cl
[24] CCOC(=O)CC(=O)CSc1nc2ccc(C)cc2cc1C#N

Assay by compound	17	18	19	20	21	22	23	24
ALR H2O2 inh	nt	nt	2	nt	nt	-14	0	22
Vif TR-FRET	nt	nt	-4%	nt	-3%	1%	8%	18%
Ecoli rRNA inh	1	10	nt	-61	-16	nt	nt	6
Ecoli rRNA inh OD600	0	17	nt	-82	-53	nt	nt	0
Ecoli rRNA inh RFP	1.1	-0.8	nt	-17	-9.0	nt	nt	6.0
FGF22 binding	i	i	nt	i	i	nt	nt	i
MLL AF4-AF9 inh	-0.6	-4.9	nt	1.4	2.0	nt	nt	0.4
E coli growth	nt	nt	0.69	nt	0.6	0.75	0.74	0.64
HNF4A DNA FP	nt	2.0	-5.6	1.1	-2.0	15	-2.7	4.7

[25] C[C@H]1CN([C@@H](C)CO)C(=O)c2cccc(NS(C)(=O)=O)c2O[C@H]1CN(C)C
[26] O=C(Nc1cccc(NC(=O)c2cncc(Br)c2)c1)c1cncc(Br)c1
[27] Cc1sc2nc(SCC(=O)NCc3ccco3)n(C)c(=O)c2c1C
[28] Cc1ccc(OCCCC(=O)Nc2cc(S(=O)(=O)N3CCOCC3)ccc2N2CCOCC2)cc1
[29] Fc1ccc(-c2nc3ccc(Br)cn3c2Cc2cccc(F)c2)cc1
[30] O=S(=O)(NCC[C@@H]1CC[C@@H](NS(=O)(=O)c2ccccc2Cl)[C@H](CO)O1)c1ccc(F)cc1
[31] CSc1cccc(NC(=S)Nc2ccc(F)cc2)c1
[32] CC(C)NC(=O)c1cccc(Br)c1

Assay by compound	25	26	27	28	29	30	31	32
ALR H2O2 inh	nt	-10	-7	nt	nt	nt	-5	-3
Vif TR-FRET	nt	nt	-9%	11%	nt	nt	-4%	-2%
Ecoli rRNA inh	0	-2	nt	0	-14	-7	-5	2
Ecoli rRNA inh OD600	4	9	nt	1	-19	-8	2	3
Ecoli rRNA inh RFP	-1.4	-4.5	nt	0.3	1.4	-1.5	10	-4.0
FGF22 binding	i	i	nt	i	i	i	i	i
MLL AF4-AF9 inh	-2.3	2.6	nt	0.5	-1.0	3.0	nt	-38
E coli growth	nt	0.69	0.75	0.64	nt	nt	0.63	0.63
HNF4A DNA FP	nt	0.0	-0.5	3.5	5.1	nt	2.6	1.1

# For convenience, some entries already given:
[25] C[C@H]1CN([C@@H](C)CO)C(=O)c2cccc(NS(C)(=O)=O)c2O[C@H]1CN(C)C
[26] O=C(Nc1cccc(NC(=O)c2cncc(Br)c2)c1)c1cncc(Br)c1

Assay by compound	25	26
ALR H2O2 inh	nt	-10
Vif TR-FRET	nt	nt
Ecoli rRNA inh	0	-2
Ecoli rRNA inh OD600	4	9
Ecoli rRNA inh RFP	-1.4	-4.5
FGF22 binding	i	i
MLL AF4-AF9 inh	-2.3	2.6
E coli growth	nt	0.69
HNF4A DNA FP	nt	0.0

# Other records.
[33] Cc1cc(C)n(-c2nc(SCCN(C)C)c3c4c(sc3n2)CCCC4)n1
[34] CCc1nc2nc(C)cc(C)n2c1Nc1ccc(OC)cc1
[35] COc1ccccc1NC(=S)N(CCCN1CCOCC1)Cc1cn(C)c2ccccc12
[36] Nc1nc2c(s1)CCc1c-2cnn1-c1ccccc1
[37] CCCC#Cc1ccc2c(c1)O[C@@H](CN(C)S(C)(=O)=O)[C@@H](C)CN([C@H](C)CO)S2(=O)=O
[38] COc1ccc(NC(=O)c2cccnc2NCCc2ccccc2)cc1
[39] CCOc1cc(C(=O)Nc2ccc(S(=O)(=O)N3CCOCC3)cc2)cc(OCC)c1OCC
[40] Nc1nc2n(n1)C(c1cccc(Br)c1)CC(c1ccccc1)N2 (centres undefined)

Assay by compound	33	34	35	36	37	38	39	40
ALR H2O2 inh	-8	nt	-2	20	nt	-5	0	-15
Vif TR-FRET	-2%	nt	-6%	22%	nt	nt	0%	3%
Ecoli rRNA inh	nt	3	-13	nt	-7	nt	0	-1
Ecoli rRNA inh OD600	nt	11	-10	nt	-8	nt	3	3
Ecoli rRNA inh RFP	nt	-7.2	1.8	nt	-2.7	nt	-2.5	2.3
FGF22 binding	nt	i	i	nt	i	nt	nt	i
MLL AF4-AF9 inh	nt	0.2	4.6	nt	4.5	nt	nt	-3.6
E coli growth	0.68	nt	0.7	nt	nt	0.69	0.8	0.76
HNF4A DNA FP	2.7	-2.8	0.4	5.5	nt	1.4	0.9	-4.8

[41] CCN(CC)CC(=O)NC12CC3CC(CC(C3)C1)C2
[42] O=C(/C=C/[C@H]1O[C@@H](n2cnc3c(NC(=O)c4ccccc4)ncnc32)[C@H](O)[C@@H]1O)NCCc1ccc(F)cc1
[43] O=C(CSc1ccccc1C(=O)N1CCN(c2ccc([N+](=O)[O-])cc2)CC1)N1CCCC1
[44] COc1ccc(C(=O)Nc2ccc(C(=O)N3CCCC3)cc2)cc1[N+](=O)[O-]
[45] CCOc1ccccc1C1c2cc3c(cc2OC(C)(N2CCCC2)C1C)OCO3 (centres undefined)
[46] Cc1ccc2c(c1)N(S(=O)(=O)c1ccc(CN3C(=O)c4cccnc4C3=O)cc1)CCO2
[47] C[C@H](CO)N1C[C@H](C)[C@@H](CN(C)Cc2ccccc2)Oc2cc(C#CCN(C)C)ccc2S1(=O)=O
[48] O=C(C[C@@H]1CC[C@H](NC(=O)C2CC2)[C@@H](CO)O1)NCc1ccncc1

Assay by compound	41	42	43	44	45	46	47	48
ALR H2O2 inh	nt	nt	11	9	70	-6	nt	nt
Vif TR-FRET	-2%	nt	nt	6%	nt	-6%	nt	nt
Ecoli rRNA inh	nt	-5	-10	2	-9	-3	-8	1
Ecoli rRNA inh OD600	nt	-2	-5	7	-12	3	-1	-6
Ecoli rRNA inh RFP	nt	-1.4	4.8	-0.6	-0.8	-4.4	2.8	-0.1
FGF22 binding	nt	i	i	i	nt	i	i	i
MLL AF4-AF9 inh	nt	-1.9	1.3	-2.1	14	-14	12	1.6
E coli growth	0.75	nt	0.7	0.63	0.72	0.73	nt	nt
HNF4A DNA FP	-3.1	1.0	3.0	-4.0	-3.5	1.8	nt	nt

[49] COc1ccc(C(=O)OCC(=O)Nc2cc(C)on2)cc1F
[50] COc1ccc2c3c([nH]c2c1)[C@@H](CO)N(C(=O)Nc1ccc(F)cc1)CC31CN(C(=O)Nc2ccccc2)C1
[51] Cc1sc(-c2ccncc2)nc1OC(=O)c1ccc(F)cc1F
[52] CC(C)CC(NC(=O)C1CCC(=O)N1)C(=O)NC(CC(C)C)C(=O)N1CCCC1C(N)=O (centres undefined)
[53] CCOC(=O)C1(CC)NC(c2ccco2)C2C(=O)N(CC)C(=O)C21 (centres undefined)

Assay by compound	49	50	51	52	53
ALR H2O2 inh	nt	nt	4	nt	10
Vif TR-FRET	-5%	nt	5%	-4%	1%
Ecoli rRNA inh	6	2	8	6	nt
Ecoli rRNA inh OD600	-3	-15	9	8	nt
Ecoli rRNA inh RFP	1.5	4.4	-2.1	-0.8	nt
FGF22 binding	i	i	i	i	nt
MLL AF4-AF9 inh	-4.2	-0.1	-2.6	0.4	nt
E coli growth	nt	nt	0.71	0.68	0.69
HNF4A DNA FP	-1.7	nt	1.3	-1.4	-2.9

# Bioassay records as filed in PubChem BioAssay.
